HIV Env fusion: blocks HIV Env-driven cell-cell fusion; HeLa-JRFL Env/CEM21 cell fusion, luciferase; inhibition, % at 12.3 µM; hit rate 1.1% among 360,000;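 active = mean replicate inhibition score of at least 50 and every replicate individually at or above 50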;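 also: 0% = plate neutral controls and 100% = maraviroc near 300 nM; one replicate is shown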
CSC inhib: blocks cancer stem cells. cancer stem cell-like cells viability, luminescence. inhibition, % at 7.5 µM. hit rate 1.1% among 300,000. AID 2717;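 active = mean at 75% or more and at least half the replicates too; tested in HMLE shEcad cells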;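 also: 0% = median of negative and 100% = median of positive control wells; the first replicate is given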
PABP polyA inh: PABP-poly(A) binding inhibition; AID 2014; PABP-poly(A) RNA binding, fluorescence polarization; inhibition, % at 35 µM; hit rate 1% among 290,000; P11940;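 active = 50% or more with normal probe brightness, or confirmed in later tests; about a fifth of its hits are not listed in these tables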;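 also: calls also rest on retests at 20 µM and on dose response follow-up; controls were probe without protein and protein plus probe with vehicle; some compounds called inactive have numbers as strong as hits; many hits fall short of the cut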
Target sequence (P11940 whole entry, looked up): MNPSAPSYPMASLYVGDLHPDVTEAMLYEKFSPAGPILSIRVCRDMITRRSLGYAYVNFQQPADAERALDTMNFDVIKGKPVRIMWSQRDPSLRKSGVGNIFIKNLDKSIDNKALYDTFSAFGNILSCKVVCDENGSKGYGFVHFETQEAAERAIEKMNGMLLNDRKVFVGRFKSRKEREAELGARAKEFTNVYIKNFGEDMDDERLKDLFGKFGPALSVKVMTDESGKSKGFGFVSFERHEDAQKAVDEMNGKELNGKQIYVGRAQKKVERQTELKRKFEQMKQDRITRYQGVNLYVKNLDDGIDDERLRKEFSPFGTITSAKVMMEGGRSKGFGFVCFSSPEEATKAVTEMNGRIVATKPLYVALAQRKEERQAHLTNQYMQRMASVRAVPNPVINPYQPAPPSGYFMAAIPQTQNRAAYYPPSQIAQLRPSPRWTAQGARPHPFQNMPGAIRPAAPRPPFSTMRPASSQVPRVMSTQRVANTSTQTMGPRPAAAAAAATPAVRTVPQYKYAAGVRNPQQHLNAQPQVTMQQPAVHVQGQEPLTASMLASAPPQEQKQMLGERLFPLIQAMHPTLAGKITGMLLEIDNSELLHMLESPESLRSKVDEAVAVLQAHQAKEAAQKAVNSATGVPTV
Rce1 inh: yeast Ras-converting enzyme inhibition; Q03530; yeast membranes, quenched prenylated peptide cleavage fluorescence; calls only; hit rate 0.27% among 290,000;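 active = fall in fluorescence gain of 50% or more versus controls, with final raw signal at or below 3038400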;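 also: plate controls were neutral control wells for no effect and wells lacking membranes for full effect; tested at 10 µM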
eIF4H FP inh: inhibitors of RNA binding by human eIF4H; hit rate 0.94% among 290,000; inhibition, % at 35 µM; eIF4H fluorescence polarization binding assay;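 active = 50% or more with normal probe brightness, or confirmed in later tests; about a fifth of its hits are not listed in these tables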;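 also: calls also rest on retests at 20 µM and on dose response follow-up; 0% = protein and probe with vehicle and 100% = probe without protein; strong numbers were not always called active; many hits fall short of the cut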
MT1-MMP act inh: blocks activation of human MT1-MMP | P50281 | HT1080 RFP-PRO-GFP cells, GFP/RFP ratio fluorescence, overnight; percent of plate control window, DMSO zero | GFP/RFP ratio change, % at 20 µM | hit rate 0.061% among 360,000 | AID 651647;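 active = GFP/RFP ratio change of at least 30% with cell ATP level not reduced by more than half and red fluorescence within 50% of control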; also: strong numbers were not always called active
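Assay system: HT1080 cells carrying an RFP-PRO-GFP reporter | Dosing: Single dose of 20 µM compound, 1% DMSO final | Incubation: Cells overnight before dosing, compound overnight, 37 °C, 5% CO2 | Evaluation: GFP/RFP fluorescence ratio | Control set: DMSO and RFP-L50D-GFP cell wells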
UUG fidelity: yeast start codon fidelity modulation. S. cerevisiae UUG-firefly luciferase reporter, luminescence/redox ratio. activity score, % at 18.7 µM. hit rate 0.13% among 350,000. AID 602363;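 active = replicate mean at a twofold rise or more, about +100% in these data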;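 also: firefly luciferase made from a UUG start codon reports start codon fidelity; reporter light over untreated wells divided by growth signal over untreated wells; some hits fall short of that in this replicate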
eIF4H FP inh retest: also measured in eIF4H FP inh; calls as there; inhibition, %; compound at 20 µM; confirmation average;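 mean of two retest wells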
PABP polyA inh retest: further read-out of PABP polyA inh, marked with its call; inhibition, %; compound at 20 µM; confirmation repeats;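 mean of two retest wells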
MT1-MMP act inh RFP: also measured in MT1-MMP act inh; calls as there; RFP signal change, %; measured here: RFP expression control read;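 0 = vehicle wells; hits needed this value within 50% of zero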
Numbers without * were called inactive; i = inactive; nt = not tested or not shown. Not all compounds are listed, so the mix of outcomes need not match the whole.

SMILES	HIV Env fusion	CSC inhib	PABP polyA inh	Rce1 inh	eIF4H FP inh	MT1-MMP act inh	MT1-MMP act inh RFP	UUG fidelity	others
CC(=O)c1ccc(NC(=S)Nc2cccc(S(=O)(=O)Nc3c(C)n(C)n(-c4ccccc4)c3=O)c2)cc1	1	-12	12	i	1	2	1	-14
COc1ccc(NC(=O)c2cc(-c3ccccc3)nc3c2cnn3C(C)C)cc1	11	nt	nt	nt	nt	-1	-3	-36
CC(Oc1ccccc1Cl)C(=O)Nc1ccc(S(=O)(=O)N2CCOCC2)cc1 (configuration not stated)	-7	nt	nt	nt	nt	5	0	-11
CCOc1ccc(S(=O)(=O)NCc2ccccn2)cc1	nt	-12	15	i	1	2	0	-25
Cc1ccc(-n2c(=S)sc3c(=O)n(-c4ccccc4C)c(SCC(=O)O)nc32)cc1C	0	nt	6	i	3	4	1	-16
COc1ccc(CN2C(=O)CSC2c2ccncc2)cc1 (configuration not stated)	-10	-5	12	nt	0	-1	2	nt
CC(=O)Nc1ccc(S(=O)(=O)Nc2nc3ccccc3nc2Nc2ccc(O)cc2)cc1	-7	-4	18	i	0	3	1	nt
Cc1ccc(NC(=O)CC2CCCC2)c(Br)c1	-12	-9	11	i	-1	0	5	nt
CCNC(=O)COc1ccc(Br)cc1Cl	-181	-2	-6	i	-1	-2	-1	61
O=C(CCC(=O)N(CC(=O)NC1CCCCC1)Cc1ccco1)Nc1nccs1	nt	-10	-5	i	0	1	0	-6
CCOC(=O)c1cnc2c(-c3ccccc3)c(-c3ccccc3)nn2c1C	19	74	4	i	-7	2	2	-8
Fc1ccccc1NC(=S)N1CCN(Cc2ccccc2)CC1	-3	-8	9	i	-3	7	6	-6
COc1ccc(NC(=O)CSc2nc3nc(C)cc(C)c3c(=O)[nH]2)cc1	3	9	7	i	0	1	4	-13
Cc1noc(NS(=O)(=O)c2ccc(NC(=O)CSc3nc4c(cc3C#N)CCC4)cc2)c1C	-37	-4	-15	i	13	-7	3	-16
O=C(CO/N=C/c1ccc(OC(F)F)cc1)NC1CCCCC1	3	-4	-9	i	-4	1	4	nt
Cc1ccc(CS(=O)(=O)c2ccc(C(=O)N3CCCCC3)cc2[N+](=O)[O-])cc1	11	1	-1	i	-4	3	-5	16
COc1ccc(CN2C(=O)C(CC(C)C)Nc3ncnc(N4CCCCC4)c32)cc1 (configuration not stated)	-1	6	nt	i	nt	2	4	-3
O=C(c1ccc2c(=O)n(Cc3ccc4c(c3)OCO4)c(=S)[nH]c2c1)N1CCCCC1	nt	nt	-5	i	-6	3	-4	nt
CCc1nc(SCC(=O)N2CC(=O)Nc3ccccc32)c2c(C)c(C)sc2n1	nt	4	6	i	-1	-13	-12	-28
O=C(N/C=C\c1ccccc1)NCc1ccc(Cl)cc1	nt	-17	0	i	1	2	0	-3
COCCn1c(SCC(=O)Nc2cc(C)cc(C)c2)nnc1C(C)C	16	-4	-8	i	-9	4	4	-14
O=C(c1ccc(S(=O)(=O)Cc2cc(F)ccc2F)c([N+](=O)[O-])c1)N1CCCCC1	26	11	-1	i	-12	-1	-9	nt
CCOc1ccc(C(=O)NCC(=O)N2CCN(Cc3ccccc3)CC2)cc1	nt	5	nt	nt	nt	1	0	-11
CC(/C=N/NC(=O)c1cc(-c2cccnc2)nc2c1c(C)nn2-c1ccccc1)=C\c1ccccc1	-7	40	-12	i	2	5	-3	-11
S=C1SCN(Cc2cccnc2)CN1Cc1cccnc1	-3	55	-2	i	-3	3	-4	nt

The last 2 records of the part before open the next one:
SMILES	HIV Env fusion	CSC inhib	PABP polyA inh	Rce1 inh	eIF4H FP inh	MT1-MMP act inh	MT1-MMP act inh RFP	UUG fidelity	others
CC(/C=N/NC(=O)c1cc(-c2cccnc2)nc2c1c(C)nn2-c1ccccc1)=C\c1ccccc1	-7	40	-12	i	2	5	-3	-11
S=C1SCN(Cc2cccnc2)CN1Cc1cccnc1	-3	55	-2	i	-3	3	-4	nt
CCOC(=O)c1c(CNCCN(CC)CC)n(C)c2cc(Br)c(OC)cc12	nt	5	8	i	-12	8	-1	nt
CC1=C(C(=O)Nc2ccc(CC(=O)NCc3ccc(OC(C)C)cc3)cc2)SCCO1	i	-11	40	i	51	7	-9	3	eIF4H FP inh retest=20;PABP polyA inh retest=20
CCc1ccccc1NC(=O)CN(C1CCCCC1)S(C)(=O)=O	-2	-3	-6	i	5	-3	-2	-5
Cc1nn(-c2cc(N(S(C)(=O)=O)S(C)(=O)=O)c(Cl)cc2Cl)c(=O)n1C	8	-12	4	i	0	2	4	-16
COc1cc(-c2cc(NC=O)c3ncc(-c4ccc(F)cc4)n3c2)cc(OC)c1OC	-7	nt	nt	nt	nt	-1	-1	-13
O=C(NCc1ccccc1Cl)C1CCCN(c2ncnc3c2nc2n3CCCCC2)C1 (configuration not stated)	-6	5	1	i	-3	-3	-1	2
Cc1cc(C)n(/C(=C\N(C)C)C(=O)c2ccc(Cl)cc2)n1	2	nt	-4	i	7	2	5	3
O=C1CC(c2ccccc2)c2ccc(O)cc2O1 (configuration not stated)	-30	-8	-10	i	-10	-1	3	-10
COc1ccc(-c2cc(C(=O)NCCN3CCOCC3)no2)cc1OC	9	7	7	i	-10	4	3	-13
COC(=O)C1=C(C)N(Cc2ccccc2)C(=S)N[C@H]1c1cccc(F)c1	10	1	-5	i	-3	-1	-3	-34
Cc1ccc(NC(=O)COc2cccnc2[N+](=O)[O-])cc1S(=O)(=O)N1CCOCC1	7	-2	-4	i	-8	1	2	-1
COc1ccc(/C=C2/N=C(SC)NC2=O)cc1OC	-6	-4	-14	i	0	2	-1	nt
CC1CCCN(C(=O)CSc2nnc(-c3c[nH]c4ccccc34)o2)C1 (configuration not stated)	nt	-5	2	i	1	-2	-1	-6
O=C(c1ccccc1Br)N1N=C(c2ccccc2)CC1c1ccccc1F (configuration not stated)	6	2	10	i	-6	-7	-7	-16
COc1cccc(NC(=O)CSc2nnc(CNC(=O)c3ccco3)n2C)c1	-9	-4	nt	i	nt	2	4	-14
FC(F)(F)c1cccc(NC(=S)NCc2ccccc2)c1	nt	7	-2	i	-5	-2	-8	-15
Cc1ccc(NC(=O)C(SCC(=O)O)c2ccccc2)cc1C (configuration not stated)	-53	3	-10	i	-11	0	5	-14
CSc1ccccc1-c1nnc(-c2ccc(Cl)cc2Cl)o1	nt	-6	1	i	2	-1	4	nt
Cc1nn(-c2ccccc2)c(C)c1NC(=O)COC(=O)c1ccc(Cl)c(N)c1	-24	0	nt	nt	nt	7	8	-15
COc1ccc(N2CCN(c3ncccc3C#N)CC2)cc1	-35	nt	7	i	-6	-1	1	nt
O=C(Cn1cc([N+](=O)[O-])cn1)Nc1ccn(Cc2c(F)c(F)cc(F)c2F)n1	-4	2	0	i	-8	-3	2	-16
O=C(COC(=O)CCC(=O)c1ccc(F)cc1)NCc1ccc(Cl)cc1	-1	2	nt	nt	nt	0	7	nt
COc1cc2c(cc1OC)CN(C(=O)c1nn(Cc3ccccc3)c(=O)c3ccccc13)CC2	2	nt	nt	nt	nt	3	-6	0
CCOc1ccc(/C=C2\SC(=O)N(CCNC(=O)C3COc4ccccc4O3)C2=O)cc1OC (configuration not stated)	32	8	-8	i	-19	-1	-15	4
COc1ccc(-c2[nH]nc3c2C(c2ccsc2)C(C#N)=C(N)O3)cc1 (configuration not stated)	4	-11	6	i	-2	-1	-3	0

Grouped by structure: the entries above containing an NH in an aromatic ring (4)
SMILES	HIV Env fusion	CSC inhib	PABP polyA inh	Rce1 inh	eIF4H FP inh	MT1-MMP act inh	MT1-MMP act inh RFP	UUG fidelity	others
COc1ccc(NC(=O)CSc2nc3nc(C)cc(C)c3c(=O)[nH]2)cc1	3	9	7	i	0	1	4	-13
O=C(c1ccc2c(=O)n(Cc3ccc4c(c3)OCO4)c(=S)[nH]c2c1)N1CCCCC1	nt	nt	-5	i	-6	3	-4	nt
CC1CCCN(C(=O)CSc2nnc(-c3c[nH]c4ccccc34)o2)C1 (configuration not stated)	nt	-5	2	i	1	-2	-1	-6
COc1ccc(-c2[nH]nc3c2C(c2ccsc2)C(C#N)=C(N)O3)cc1 (configuration not stated)	4	-11	6	i	-2	-1	-3	0

Further entries.
SMILES	HIV Env fusion	CSC inhib	PABP polyA inh	Rce1 inh	eIF4H FP inh	MT1-MMP act inh	MT1-MMP act inh RFP	UUG fidelity	others
O=C(COC(=O)Cc1cccc(C(F)(F)F)c1)Nc1ccccc1	8	27	5	i	17	3	3	0
COc1ccc(OC)c(NC(=O)C2CCCN2C(=O)C2CCC(C)CC2)c1 (configuration not stated)	32	-5	-2	i	8	-3	-4	-1
Cc1ccc(CSCCNC(=O)/C=C/c2ccc(Cl)cc2)cc1	-35	-7	0	i	-2	-1	4	-10
Cc1nc(C(F)(F)F)ccc1C(=O)N1CCCC(C)(C(=O)O)C1 (configuration not stated)	-47	nt	nt	nt	nt	-1	2	-11
COc1ccc(S(=O)(=O)O)cc1P(=O)(c1ccccc1)c1ccccc1	6	-14	10	i	-1	0	4	-3
Cn1c(=O)[nH]c(=O)c2c1nc(N1CCOCC1)n2CCCSc1ncccn1	nt	4	-14	i	0	4	9	-1
Cc1[nH]oc(=O)c1N=Nc1ccccc1	-2	-11	-1	i	7	4	4	nt
O=C(O)c1ccc(-n2cccc2/C=C2/NC(=O)N(c3cccc(Cl)c3)C2=O)cc1	3	nt	-9	nt	92	-7	-2	nt	eIF4H FP inh retest=-21;PABP polyA inh retest=42
O=C(Nc1cccc(NC(=O)c2ccc(Cl)cc2Cl)c1)c1cccnc1	-1	-9	-2	i	4	2	-7	-20
CCn1cc(C(=O)NNC(=O)c2ccc(Cl)cc2)c(=O)c2ccc(C)nc21	nt	-10	-4	i	3	0	-1	nt
COc1ccc(CNC(=O)COc2cc(=O)n(C)c3ccccc23)cc1	1	-11	0	i	9	7	5	nt

High-throughput results from PubChem BioAssay.
